Screens deposited in PubChem BioAssay by ICCB-Longwood Screening Facility, Harvard Medical School.
RVFV N-RNA inh = inhibitors of RVFV nucleoprotein–RNA binding, primary screen, biochemical, fluorescence polarization; P21700; RVFV N-RNA binding; stronger effect = lower value; % bound, % (test concentration not listed); actives 0.1% (n = 20,000);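 active means between 0 and 58% in either replicate with normal brightness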;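 further: 100 nL library stock added to about 12 µL; 100% = protein and probe without compound and 0% = probe alone; numbers are from one replicate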
Target sequence (P21700 whole entry, looked up): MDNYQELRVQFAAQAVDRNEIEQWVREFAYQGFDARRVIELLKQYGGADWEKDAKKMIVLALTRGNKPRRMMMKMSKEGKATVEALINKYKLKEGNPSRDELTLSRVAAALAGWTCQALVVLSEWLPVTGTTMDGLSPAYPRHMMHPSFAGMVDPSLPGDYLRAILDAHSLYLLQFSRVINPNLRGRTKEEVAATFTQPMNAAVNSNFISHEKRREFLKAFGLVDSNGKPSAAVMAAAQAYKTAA
The depositor's hits bear a star; & = joins results of further samples.

SMILES	RVFV N-RNA inh
CC12CC=C3c4ccc(O)cc4CCC3C1CCC2O (configuration not stated)	104.1
CCN1C(=O)c2cccc3c(NC(=O)c4cccc(N5C(=O)CCC5=O)c4)ccc1c23	100.1
CC(C)CN(CC(C)C)S(=O)(=O)Cc1ccccc1	109.1
Cc1cccc(N2C(=O)C3C(C4=C(O)c5ccccc5C4=O)=NC(c4ccccn4)C3C2=O)c1 (configuration not stated)	96.3
CCCN1CCC(NCC(C)c2ccccc2)CC1 (configuration not stated)	96.5
O=C(O)/C=C/C(=O)c1ccccc1	96.0
Cc1[nH]c(=O)[nH]c(=O)c1/C=N/NC(=S)NCc1ccc(OC(C)C)cc1	88.6
Cc1ccc(CC2C(=O)N(c3nc(C)cc(C)n3)C(=O)C2C)cc1 (configuration not stated)	92.3
O=C(NC(C(=O)c1ccccc1)N1CCCCC1)c1ccccc1 (configuration not stated)	92.3
O=c1cc(-c2ccccc2)[nH]c2nc(Cl)ccc12	96.4
CN1C(=O)C(O)(C2COC(C)(C)CC2=O)c2cc(Br)ccc21 (configuration not stated)	98.5
COc1ccc(NC(=O)CN2CCCC2)cc1	108.2
CCCCNc1c(C(=O)OCC)c(C)nc2c1cnn2CC	95.1
CC(=O)N(Cc1cc2ccc(C)cc2[nH]c1=O)CC1CCCO1 (configuration not stated)	87.3
O=C1NC(=O)C(c2cn(CCCn3ccnc3)c3ccccc23)=C1Nc1ccccc1	95.4
COc1ccc(C(=O)OCN2C(=O)c3ccccc3C2=O)cc1	89.4
CN(C)S(=O)(=O)c1cccc(-c2cn3cc(Cl)ccc3n2)c1	98.1
S=c1[nH]nc2ccccn12	105.7
Cc1cc(C)c2c(=O)cc(C(F)(F)C(F)F)oc2n1	107.2
COc1ccc(OC)c(/C=N\NC(=O)C2C(=O)NCC2c2ccccc2)c1 (configuration not stated)	94.6
NC(=O)c1oc2ccccc2c1NC(=O)Cc1ccc(Cl)cc1	92.9
O=C(CCCCCN1CCN(c2ccccc2-c2ccccc2)CC1)NC1CCCc2ccccc21 (configuration not stated)	97.1
CCc1cccc(N(C)C(N)=Nc2cccc3ccccc23)c1	90.7
CN/C(=C\[N+](=O)[O-])NCCSCc1ccc(CN(C)C)o1	125.7&93.9
Cc1cc(C(=O)Nc2ccc(CC(=O)O)cc2)cs1	91.7
O=C(Nc1ccc(OCC(F)(F)C(F)F)c(C(F)(F)F)c1)c1ccccc1O	104.2
O=c1c(-c2cc(F)ccc2F)c(O)nc2n1CCCC2	94.0
O=S(=O)(/N=C/c1ccco1)c1cccs1	98.7
CC1CC(NC(=O)/C(C#N)=C/c2ccc[nH]2)CC(C)(C)C1 (configuration not stated)	94.9
Cc1c(C(=O)NN2CCN(C)CC2)oc2ccccc12	91.0
Cc1cc(=O)oc2c1c(C)nn2C	94.1
CCOc1ccc(N(CC)C(=O)NC2CC(=O)N(c3ccc(OC)cc3)C2)cc1 (configuration not stated)	93.6
Cc1cccn2cc(CNC(=O)CC(C)(C)C)nc12	98.8
Cc1ccc(/C=C/C(=O)N2CCN(c3cccc(C)c3C)CC2)cc1	92.3
Cc1nnsc1C(=O)Nc1ccccc1C(F)(F)F	108.3
COc1ccc(-c2nc3scc(CCNC(=O)Cc4ccccc4)n3n2)cc1	79.9
CC(C)C(=O)Nc1cccc(NC(=S)NC(=O)/C=C/c2ccco2)c1	97.6
O=C(Cc1ccccc1)O/N=C/c1ccc2c(c1)OCO2	95.2
Cc1nn(C)c2sc(C(=O)NN)cc12	93.4
O=C1CC[C@@]2(O)[C@H]3Cc4ccc(O)c5c4[C@@]2(CCN3CC2CC2)[C@H]1O5	97.2&91.4
Cc1ccc(N2CC(C(=O)Nc3c(C(N)=O)oc4ccccc34)CC2=O)cc1 (configuration not stated)	99.8
Cc1cccc(-c2noc(CSc3ccccc3)n2)c1	98.6
CC(C)c1ccc(C=NCCO)cc1	91.1
CC(C)NCC(O)c1cc(O)cc(O)c1 (configuration not stated)	95.5&101.9
C/C(=C\C(=O)c1ccc(Cl)cc1)Nc1ccncc1	98.0
CCCc1cc(=O)n2[nH]c(-c3ccc(I)cc3)cc2n1	106.4
NCC(O)(CS(=O)(=O)O)c1ccc(Cl)cc1 (configuration not stated)	98.1
CCC(CC)C(=O)Nc1cccc(NC(C)=O)c1	96.0
CSc1nc(C)cc(SCCOc2ccccc2)n1	104.9
COc1ccc(CCNC(=O)c2ccc(N(C)S(C)(=O)=O)cc2)cc1	104.1
O=C1c2ccccc2C(=O)c2c(NCCc3ccc(O)cc3)ccc(NCCc3ccc(O)cc3)c21	95.8
CC1CCN(CC(=O)Nc2nccs2)CC1	91.9
C#CCn1c(=NC(=O)C(C)C)sc2c(C)cc(C)cc21	101.0
N#Cc1cnn(-c2ccccc2)c1NC(=O)CN(Cc1ccccc1)Cc1ccccc1	93.5
CCCC1NC(=S)N(c2ccccc2)N1 (configuration not stated)	90.8
CC(C)(C)n1ncc2c(=O)n(CC(=O)NC3CCCC3)cnc21	106.8
CN1CCN(CCCN2c3ccccc3Sc3ccc(C(F)(F)F)cc32)CC1	94.8&95.1&91.6
CC(C)[C@H](NC(=O)[C@H](CC(=O)O)NC(=O)[C@H](CCCCN)NC(=O)[C@@H](N)CCCN=C(N)N)C(=O)N[C@@H](Cc1ccc(O)cc1)C(=O)O	110.8
CCOCC(=O)NCc1ccc(OC)cc1	100.9
CC(C)(C)OC(=O)N1CCC(CNS(=O)(=O)c2cccc3nonc23)CC1	94.6

Carrying on.
SMILES	RVFV N-RNA inh
N#CC(C#N)=CNc1cc(C(F)(F)F)ccc1N1CCOCC1	96.6
COc1ccc(C(=O)NCc2nnc(SC)n2-c2ccc(OC)cc2)cc1	98.9
Cc1c(N2C(=O)c3ccccc3C2(O)c2ccccc2)c(=O)n(-c2ccccc2)n1C (configuration not stated)	98.9
CCOC(=O)c1c(SC)nc2ccc(Cl)cc2c1N1CCN(C)CC1	92.8
CSC1=NC=C(C#N)C2=NC(c3c(F)cccc3Cl)NN12 (configuration not stated)	102.2
CCOC(=O)c1cnc(NNC(=O)C(F)(F)F)nc1C(F)(F)F	101.9
Cc1cc(=O)n(C(N)=S)[nH]1	88.2
CN(C)CC[C@@H](c1ccc(Br)cc1)c1ccccn1	93.5&90.2
CC(C)NC[C@H](O)COc1cccc2ccccc12	96.8
COC(=O)/C=C1\SC(=NC(=O)c2cccc(Cl)c2)NC1=O	88.0
COc1ccc(CCNC(=O)c2ccnc(C(C)(C)C)c2)cc1OC	86.6
CC(C)CNC(=O)CSc1ccc(Cl)cc1	85.0
CC(C)Sc1nnc(NC(=O)C(C)(C)C)s1	96.3
CN1C(=O)C2C(c3ccccc3)NN(C)C2C1=O (configuration not stated)	110.3
Cc1nc(-n2cccc2)sc1C(=O)N/N=C/c1ccccc1Cl	94.3
Cc1c(C(=O)N/N=C/c2ccccc2)sc(=S)n1C	96.0
O=C1CN(c2ccccc2)CC(=O)N1	100.1
O=C(NCc1ccco1)C1(c2ccccc2)CCCC1	94.1
CCOc1ccc2nc(SCC(=O)c3ccc(C)s3)sc2c1	95.4
COc1c(C)c2c(c(O)c1C/C=C(\C)CCC(=O)OCCN1CCOCC1)C(=O)OC2	105.6

The last 10 compounds of the section above open the next one.
SMILES	RVFV N-RNA inh
COc1ccc(CCNC(=O)c2ccnc(C(C)(C)C)c2)cc1OC	86.6
CC(C)CNC(=O)CSc1ccc(Cl)cc1	85.0
CC(C)Sc1nnc(NC(=O)C(C)(C)C)s1	96.3
CN1C(=O)C2C(c3ccccc3)NN(C)C2C1=O (configuration not stated)	110.3
Cc1nc(-n2cccc2)sc1C(=O)N/N=C/c1ccccc1Cl	94.3
Cc1c(C(=O)N/N=C/c2ccccc2)sc(=S)n1C	96.0
O=C1CN(c2ccccc2)CC(=O)N1	100.1
O=C(NCc1ccco1)C1(c2ccccc2)CCCC1	94.1
CCOc1ccc2nc(SCC(=O)c3ccc(C)s3)sc2c1	95.4
COc1c(C)c2c(c(O)c1C/C=C(\C)CCC(=O)OCCN1CCOCC1)C(=O)OC2	105.6
C=C(C)C1CC=C(CN2CCC(C(=O)OCC)CC2)CC1 (configuration not stated)	96.5
O=c1c(Cl)c(Cl)cnn1Cc1ccccc1	93.7
N#Cc1ccccc1S(=O)(=O)N1CCN(S(=O)(=O)c2ccccc2C#N)CC1	97.2
COc1ccc2oc(=O)c(C(=O)N3c4ccccc4CC3C)cc2c1 (configuration not stated)	101.2
O=C(NCCN1CCOCC1)NC(c1ccccc1)c1ccccc1	111.3
CN(C)C(=O)CSc1cccc2cccnc12	85.3
O=C(CCCCCCC(=O)Nc1ccccc1)NO	99.0
Cc1ccc(Cl)cc1NC(=O)CC(C(=O)O)N1CCN(C)CC1 (configuration not stated)	101.6
CSc1nc2n(n1)C(C)C1=C(CCCC1=O)N2 (configuration not stated)	95.0
CC(Oc1ccccc1)C(=O)N1c2ccccc2CC1C (configuration not stated)	99.7
O=C(Nc1cc(C(F)(F)F)ccc1N1CCCCC1)c1ccncc1	95.2
CCC(=O)C1=C(c2ccccc2)N(C(=O)CC)n2cnnc2S1	96.6
CCC(C(=O)Nc1nnc(C2CC2)s1)c1ccccc1 (configuration not stated)	89.4
CC1CC(C)CN(C(=O)/C=C/c2ccc(Cl)cc2)C1 (configuration not stated)	99.9
O=C(O)CC1(CC(=O)NCc2ccccc2F)CCCCC1	100.6
O=C(NCc1nnc(SCc2ccc(Br)cc2)n1-c1ccc(F)cc1)c1ccco1	95.5
CC(/C=C/c1cccc(Oc2ccc(F)cc2)c1)N(O)C(N)=O (configuration not stated)	93.5
CC(C)=N/N=c1\scc(-c2ccccc2)n1Cc1ccco1	100.7
CCCCSC1=NC(=O)CC(=O)N1	89.5
CC12CCCC(C(=O)NN)(CCC1)C2	90.1
CCOc1ccc(-c2cccc(NC(=O)c3c(OC)cccc3OC)c2)nn1	88.7
OC(c1ccccc1)C1CN(Cc2ccccc2)CCC1(O)c1ccccc1 (configuration not stated)	99.1
CC(=O)Nc1sc2c(c1-c1nc3ccccc3s1)CCCC2	93.3
CNC(=S)N/N=C/c1ccc(-c2ccccc2C(=O)OC)o1	95.7
CC(=O)Nc1c(C#N)c(C)n(-c2ccccc2)c1C(=O)c1ccccc1	104.3
O=c1c2ccccc2nc2oc3ccccc3n12	93.6
CCCCc1ccc(NC(=O)C=C(C)C)cc1	90.8
Cc1ccc(OCC(=O)NCc2ccc(C(=O)O)cc2)cc1C	98.8
CO/N=C/c1c(N(C(C)C)C(C)C)nc2ccc(C)cn2c1=O	98.8
CCOC(=O)C1=C(N)Oc2n[nH]c(C)c2C12C(=O)N1c3c(cc(C)cc32)C(C)CC1(C)C (configuration not stated)	96.2
CC(C)CNC(=O)COc1ccc(Cl)cc1Cl	99.6
OCC1CCCN(Cc2ccc(-c3ccccc3)cc2)C1 (configuration not stated)	99.7
CCCCC(=O)N=c1sc2cc3c(cc2n1CCC)OCO3	96.2
O=C(Oc1coc(CSc2ncccn2)cc1=O)c1ccccc1	91.2
Cc1noc(C)c1C(=O)NCc1ccccc1F	87.6
NC(=O)CN1C(=O)CCS(=O)(=O)c2ccccc21	93.8
CCOCCn1c(=NC(=O)C2CC2)sc2cc(S(C)(=O)=O)ccc21	94.1
CC1(C)OC(=O)C(=CNNc2ccc(C(F)(F)F)cc2)C(=O)O1	90.4
Cc1cc(NC(=O)c2ccco2)ccc1NC(=O)Cc1ccccc1	95.5
CC(Cc1ccc(O)c(O)c1)(NN)C(=O)O (configuration not stated)	100.2

Ordered by length of the SMILES (high to low): some entries from above.
SMILES	RVFV N-RNA inh
O=C(NC(C(=O)c1ccccc1)N1CCCCC1)c1ccccc1 (configuration not stated)	92.3
CC12CC=C3c4ccc(O)cc4CCC3C1CCC2O (configuration not stated)	104.1
CC(C)Sc1nnc(NC(=O)C(C)(C)C)s1	96.3

(next part)
SMILES	RVFV N-RNA inh
CCOC(=O)c1nn(-c2ccc(C)cc2)c(=O)cc1OCC(=O)NCc1ccco1	79.3
Cn1ncc2c(NCc3ccccc3)nc(N3CCN(CCO)CC3)nc21	91.9
COC(=O)c1ccc(NS(=O)(=O)N(C)C)cc1	98.6
Cc1ccc(SCC(=O)N2CC(C)CC(C)C2)cc1 (configuration not stated)	86.8
CCN(CC)C(=O)NC1CCCCCC1	91.3
COc1ccc(-c2nc3scc(CCN)n3n2)cc1	92.2
C=C(C)c1cccc(C(C)(C)NC(=O)N2CCC(C(=O)OCC)CC2)c1	94.7
Nc1ccccc1C(=O)Cc1ccccc1	101.3
COC(=O)c1ccc(CSc2nc(=O)n3cc(C)ccc3n2)o1	98.9
O=c1[nH]c2ccccc2nc1C(F)(F)C(F)(F)C(F)(F)C(F)F	95.4
N/C(=N\OC(=O)c1ccc2ncsc2c1)c1ccccc1	94.2
CC1CCCC(C)N1C(=O)c1cc2cccnc2n(Cc2ccccc2)c1=O (configuration not stated)	96.4
C=C(CC)C(=O)c1ccc(OCC(=O)O)c(Cl)c1Cl	96.6&93.9
COc1cccc(C(=O)Nc2cccc(N=C(N)CCC(=O)O)c2)c1	97.6
O=C(NCc1ccco1)C(=S)N1CCOCC1	97.6
CCc1cc(=O)oc2c(O)c(O)ccc12	95.1
O=C(c1sc2ccccc2c1Cl)N1CCCCC1	95.3
Nc1ccc(C(=O)NCC2COc3ccccc3O2)cc1 (configuration not stated)	94.5
COC(=O)C1=C(N)OC2=C(C(=O)CCC2)C12C(=O)Nc1ccccc12 (configuration not stated)	87.0
CCCS(=O)(=O)N1N=C(c2ccc(Cl)cc2)CC1c1ccco1 (configuration not stated)	70.0
OCC1(CO)C2C3C4CC5C6C4C2C6C1C53 (configuration not stated)	94.1
CCOc1ccc(NC(=O)CSc2ccnc3c2c(=O)n(C)c(=O)n3C)cc1	90.7
COc1ccc2oc(=O)c(-c3nc4ccc(OC)cc4[nH]3)cc2c1	93.8
CCN(CC)S(=O)(=O)c1ccc(C(=O)NCc2ccc3c(c2)cc(C)n3C)cc1	100.0
CC#CCOC(=O)c1c(C)nc2sc3c(c2c1N)CCC(O)C3 (configuration not stated)	100.7
Nc1nc2[nH]c(=S)[nH]c2c(=O)[nH]1	90.2
CCCc1c(C(=O)O/N=C/c2ccc(C#N)cc2)cnn1-c1ccccc1	97.7
CC1CCCCN1S(=O)(=O)c1ccc(C(=O)Nc2nc(-c3ccc4c(c3)OCO4)cs2)cc1 (configuration not stated)	95.8

Only part of the results is shown; rates above refer to the full screens.
